Screens (PubChem)
BasE inh = BasE siderophore biosynthesis inhibition; AID 485350; purified BasE, fluorescence polarization binding displacement; 84,000 compounds, 0.1% hits; inhibition, % (concentration not given with the values);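 active = both replicates above 25% with normal brightness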;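 note: 0% = negative plate control signal and 100% = positive plate control signal; stock transfer was 100 nL into about 30 µL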
LANA-nucl inh = LANA-nucleosome interaction inhibition; FITC-LANA1-23 / chicken nucleosome fluorescence polarization; hits give low values; z-score (no concentration beside the values); 51,000 compounds, 0.3% hits; AID 720717;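 active = both repeat wells score below -2 in polarization z-score versus plate sample wells, excluding overly bright wells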;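 note: 100 nL library stock added to about 30 µL; numbers are from one replicate; some results filed as inactive read as strong as hits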
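Assay system: FITC-LANA peptide and chicken nucleosomes; input: 240 nM purified chicken nucleosomes (480 nM peptide binding sites), final; also added: 50 nM FITC-LANA1-23 probe; medium: TEN-BT buffer, pH 7.5; doses: pin-transferred compound, 100 nL; times: 10–45 min, room temperature; technique: fluorescence polarization; replication: duplicates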
Active calls of the source: *; nt = no result given; & = joins results of further samples. Not all compounds are listed, so the mix of outcomes need not match the whole.

SMILES	BasE inh	LANA-nucl inh
CCC(=O)OCC(=O)[C@@]1(OC(=O)CC)[C@@H](C)CC2C3CCC4=CC(=O)C=C[C@]4(C)C3(F)[C@@H](O)C[C@@]21C (stereo not given in full)	nt	-0.34
N#Cc1c2c(c(NCCN3CCCCC3)n3c1nc1ccccc13)CCC2	1.4	nt
COc1ccc(N2CCN(C(=O)c3ccccc3I)CC2)cc1	-2.0	0.11
CCCCN(C)C(=O)CN1C(=O)c2cccnc2Oc2ccc(C)cc21	3.0	-0.86
O=C(NCc1ccccc1C(F)(F)F)C1CCN(c2ncccn2)CC1	1.8	-0.92
CCn1c(SC)nnc1C1CCN(CC(=O)N(c2ccccc2)c2ccccc2)CC1	0.1	0.51
CC(=O)N1CCN(Cc2cnc(Cl)s2)CC1	nt	0.32
c1ccc2c(c1)[nH]c1nc(NN=C3CCC(=NNc4nnc5c(n4)[nH]c4ccccc45)CC3)nnc12	-1.9	1.2
CNC(=S)Nc1cc(Cl)ccc1OC	-0.1	0.3
COC(=O)[C@@H]1CC(=O)O[C@H](C)C/C=C/C=C/[C@H](O)[C@H](C)C[C@H](CC=O)[C@H](OC2O[C@H](C)[C@@H](OC3C[C@@](C)(O)[C@@H](OC(=O)CC(C)C)[C@H](C)O3)[C@H](N(C)C)[C@H]2O)[C@H]1OC (stereo not given in full)	nt	-1.2
O=C(NCCN1CCOCC1)c1ccc2c(=O)n(Cc3ccc(Cl)cc3)c(=S)[nH]c2c1	1.2	0.88
CC(O)c1ccc(-n2cccc2)cc1 (stereo not given)	nt	2.5
CCN(CC)Cc1c(O)ccc2c(=O)c(-c3ccccc3Cl)coc12	2.3	0.42
CCOC(=O)C1(CC)CC(C)(c2csc(N)n2)OC1=O (stereo not given)	0.2	0.22
O=c1cc(-c2ccco2)oc2c1ccc1ccccc12	-0.4	nt
COC(=O)Cc1csc(NC(C)(C)C)n1	0.9	nt
O=c1cc(-c2ccccc2)nc2cc(-c3ccccc3)[nH]n12	0.5&-0.8	0.14
CCOC(=O)c1cc(-c2ccc(Cl)cc2)oc1C(F)(F)F	1.5	nt
Cc1cc(C(=O)COC(=O)C2CC(=O)N(Cc3ccccc3)C2)c(C)n1Cc1cccs1 (stereo not given)	0.7	nt
Nn1c(SCc2ccccc2)nnc1-c1ccco1	-0.3	0.75
Cc1nnc(NCc2ccccc2)c2ccccc12	-3.4	2.2
C=CCOC(c1ccccc1)c1nc2ccccc2n1CC=C (stereo not given)	2.9	-1.9
Cc1ccc(NCC(O)CN)c(Br)c1 (stereo not given)	1.4	0.32
Cc1cc2c3c(c1)c(-c1ccccc1)c(C)n3CCC2	1.5	nt
Cc1ccccc1OCc1nnc(SCC(=O)Nc2ccnn2C2CCCC2)n1-c1ccccc1	0.7	nt
Cc1nn(C)c2sc(C(=O)NC3CCCCNC3=O)cc12 (stereo not given)	-0.2	nt
CC(C)c1ccccc1NC(=O)COC(=O)Cn1nnc(-c2ccccc2)n1	1.7	nt
O=S(=O)(Nc1nc2ccccc2nc1NCCc1ccccc1)c1ccc(Cl)cc1	-0.1	nt
COC(=O)c1cc(OC)c(OC)cc1NC(=O)c1ccc(-c2ccccc2F)o1	-4.0	1.6
Cc1cnc(C(=O)NC(c2ccccc2)c2ccccc2)cn1	0.3	nt
O=C(CCN1C(=O)c2ccccc2C1=O)Nc1nncs1	0.6	0.23
Cc1ccc(-c2nnc3n(Cc4ccc(F)cc4)c(=O)c4ccccc4n23)s1	-0.4	-0.84
CCc1ccc(OCC(=O)c2c(O)c3ccccc3oc2=O)cc1	0.8	-0.35
CC1(C)C/C(=N/NC(N)=S)c2ccoc2C1	1.3	-1.4
CC(C)NC(=O)N(Cc1cccnc1)Cc1cccs1	1.3	-0.78
Cc1ccc(N2CC(=O)N(/N=C/c3ccc4c(c3)OCO4)CC2=O)cc1	0.3	-0.13
O=C(O)C1(c2ccccc2)CCCN1 (stereo not given)	-1.1	0.088
CCN(CC)S(=O)(=O)c1ccc2c(c1)nc(CC(=O)O)n2C	1.2	nt
CC(C)Nc1cc(C(F)(F)F)nc(-c2ccccn2)n1	nt	-0.93
CCN(CC)C(=O)c1cccc(-c2nnc(-c3ccccc3)o2)c1	0.6	-0.81

Four records picked at random from those above, as already listed:
SMILES	BasE inh	LANA-nucl inh
CCc1ccc(OCC(=O)c2c(O)c3ccccc3oc2=O)cc1	0.8	-0.35
CC(C)NC(=O)N(Cc1cccnc1)Cc1cccs1	1.3	-0.78
CCN(CC)S(=O)(=O)c1ccc2c(c1)nc(CC(=O)O)n2C	1.2	nt
CC1(C)C/C(=N/NC(N)=S)c2ccoc2C1	1.3	-1.4

Continued.
SMILES	BasE inh	LANA-nucl inh
CN(C)c1ccc(/C=C2\N=C(C(C)(C)C)OC2=O)cc1	6.7	-0.26
O=C(O)c1ccc(C(=O)O)c(-c2nc3ccccc3s2)c1	0.1	nt
CC1CN(C(=O)CCC(=O)N2CCCCC2)c2ccccc2O1 (stereo not given)	0.1	-0.47
CC(OC(=O)c1ccc(Cl)c(N)c1)C(=O)Nc1ccc(C(N)=O)cc1 (stereo not given)	-2.0	nt
O=C1CCCCC1c1nccc2ccccc12 (stereo not given)	1.8	1.1
Cc1ccc(C)c(Oc2c(C(F)(F)F)oc3c(CN4CCN(C)CC4)c(O)ccc3c2=O)c1	-0.1	0.17
CCCNC(=O)CN1C(=O)CSc2ncccc21	2.6	-0.65
Cc1sc2nc(CN3CCOCC3)nc(NCCc3ccc(S(N)(=O)=O)cc3)c2c1C	-3.8	nt
Cc1ccc(S(=O)(=O)NNc2ncnc3c(C)csc23)cc1	1.9	0.29
c1ccc2[nH]c(C34CC5CC(CC(C5)C3)C4)cc2c1	1.6	nt
CCOC(=O)c1sc(SC)c(C#N)c1-c1cccs1	0.9	0.63
CCN(CC)S(=O)(=O)c1ccc(N2CC(C(=O)NC3CCCc4ccccc43)CC2=O)cc1 (stereo not given)	3.2	nt
N#Cc1cc2c(nc1SCc1ccncc1)CCCCC2	1.9	-0.37
COC(=O)C1=C(C)NC(C)=C(C(=O)OCC(C)C)C1c1ccccc1[N+](=O)[O-] (stereo not given)	nt	-0.071&-0.23&-0.11
FC(F)(F)c1cccc(N2CCN(Cc3cccs3)CC2)c1	-1.3	-0.049
CC(O)CNCc1ccccc1OCc1ccccc1F (stereo not given)	1.2	nt
CCc1cc2c(=O)n(Cc3ccco3)c(SCC(=O)NC3CCCC3)nc2s1	1.1	1.2
COc1ccc2nc(N3CCCCC3)[nH]c2c1	-0.2	nt
CCOC(=O)c1cnc(-c2ccccc2)nc1-c1ccncc1	-3.7	0.3
O=C(Cn1ncn2c(cc3ccccc32)c1=O)N1CCN(c2ccccc2)CC1	4.0	-0.24
COc1cccc(NCCCCO)c1	0.9	0.78
CC1CCN(C(=O)Cn2ncc3c([nH]c4ccccc43)c2=O)CC1	-2.3	0.52
N#Cc1ccccc1CSCC(=O)N1CCN(c2ccccc2)CC1	-0.8	nt
CCc1ccc(-c2cc(C)no2)cc1S(=O)(=O)NCCCN1CCC(C)CC1	-11	nt
O=C(CSc1ccc(-c2ccncc2)nn1)N1CCCc2ccccc21	-0.9	0.0095
[O-][n+]1onc2c1CCc1c-2nc(-c2ccccc2)n1O	-0.4	-0.38
CCCC(C(=O)Nc1ccc(OCC)cc1)N1Cc2ccccc2C1=O (stereo not given)	3.0	-0.51
Cc1ccc(CNC(=O)Nc2ccccc2)cc1	1.2	nt
C/C=C(\C(=O)O)c1ccccc1	-0.5	-0.53
O=C1N/C(=N\O)S/C1=C/c1ccc(O)cc1	7.1	nt
COC(=O)c1c(NC(=O)CCN2CCOCC2)sc2c1CCCC2	2.6	nt
O=C(c1sccc1Cl)N1CCN(Cc2ccc3c(c2)OCO3)CC1	nt	-0.081
N#Cc1ccc(NC(=O)COC(=O)CCc2nc3ccccc3[nH]c2=O)cc1	-0.6	nt
CN1C(N)=NC(=O)C12COC(c1cccnc1)OC2 (stereo not given)	0.7	-0.37
CCc1ccc(S(=O)(=O)NCc2csc(-c3cccnc3)n2)s1	-6.1	0.57
CC(C)Sc1nc2c(c(=O)[nH]1)C(c1cccs1)C1=C(CC(C)(C)CC1=O)N2 (stereo not given)	2.7	-0.9
Cc1[nH]nc2nc(SCC(=O)NC3CCCCC3)n(-c3ccc(Br)cc3)c(=N)c12	1.1	-1.6
Cn1c(NNC(=O)c2ccccc2)cc(=O)n(C)c1=O	-0.2	0.4
O=C(O)CCCN1C(=O)/C(=C/c2c(N3CCN(Cc4ccccc4)CC3)nc3ccccn3c2=O)SC1=S	14	0.22
CNc1ccccc1C(C)(C)c1cc(-c2cccc(OC)c2)no1	2.7	nt
S=c1[nH]c(-c2ccccc2)c(-c2ccccc2)[nH]1	-1.0	nt
CCCn1c(C)cc(C(=O)COC(=O)C2COc3ccccc3O2)c1C (stereo not given)	0.7	nt
O=C(NCCN1CCN(c2cccc(Cl)c2)CC1)c1ccc(CS(=O)(=O)c2cccc(C(F)(F)F)c2)o1	0.1	0.45
Cc1ccccc1NC(=O)COc1coc(CN2CCN(Cc3ccccc3)CC2)cc1=O	2.4	-0.34
CSc1nc2scc(-c3cccs3)c2c(=O)n1CC(C)C	1.0	nt
O=C(O)C(Cc1ccccc1)C(=O)O	0.1	nt
CCO/C=C1\C(=O)C(C)(C)Oc2ccc3ccc(=O)oc3c21	1.0	0.19
O=C(CCNc1n[nH]c(=O)[nH]c1=O)N/N=C/c1ccccn1	2.7	-0.33
O=C(O)c1cc(C(=O)O)n(Cc2ccccc2Cl)n1	2.9	-0.68
CCCCn1c(O)c(Nc2ccc3c(c2)=NC(=O)N=3)c2ccccc21	-0.8	nt

Three structures from above, ordered by length of the SMILES, highest first:
SMILES	BasE inh	LANA-nucl inh
CCCCn1c(O)c(Nc2ccc3c(c2)=NC(=O)N=3)c2ccccc21	-0.8	nt
CCO/C=C1\C(=O)C(C)(C)Oc2ccc3ccc(=O)oc3c21	1.0	0.19
O=C(O)c1cc(C(=O)O)n(Cc2ccccc2Cl)n1	2.9	-0.68

(list continues)
SMILES	BasE inh	LANA-nucl inh
Cc1cc(-n2cnc(-c3cnoc3C)n2)no1	0.4	nt
Cc1cc(=O)oc2cc(OCC(=O)OCc3nnc(-c4ccccc4)o3)ccc12	-1.2	nt
O=C1CC(C(=O)N(Cc2ccco2)Cc2cccs2)CN1Cc1ccccc1 (stereo not given)	-0.3	nt
O=C(CSc1cccc[n+]1[O-])Nc1ccccc1OC(F)F	1.7	nt
O=C(NCCCN1CCC(Cc2ccccc2)CC1)c1nnc(Cc2ccc3c(c2)OCO3)o1	-1.0	-0.28
COc1ccc(-c2cc(CCCC(=O)NCCc3cccs3)no2)cc1	0.9	2
N#COc1ccc(Oc2ccc(OC#N)cc2)cc1	2.5	-0.32
CC(=O)NC1=NC(=O)/C(=C/c2ccccc2)S1	2.2	-0.55
COc1ccc(CC(=O)Nc2nccs2)cc1S(=O)(=O)N1CCOCC1	0.7	nt
CCOC(=O)C1CCN(C(=O)COC(=O)c2ccccc2OCC)CC1	2.4	nt
O=C(/C=C/c1cccs1)NCC1CCN(C(=O)/C=C/c2cccs2)CC1	-2.2	-1.1
Cc1ccc2c(c1)-c1onc(C(=O)N(Cc3ccco3)CC3CCCO3)c1CO2 (stereo not given)	1.3	-0.98
CCOC(=O)/C(C#N)=C/c1cn(Cc2ccccc2)c2ccccc12	-2.0	1.7
CCOc1ccc(NC(=O)CC2C(=O)N(C)C(=S)N2CCc2ccccc2)cc1 (stereo not given)	3.2	nt
COc1cc(C(c2nnnn2Cc2ccco2)N2CCN(C3CCCC3)CC2)cc(OC)c1OC (stereo not given)	-0.6	0.44
O=C(O)c1ccccc1C(=O)Nc1nccs1	3.2	nt
O=S(=O)(c1ccc2c(c1)OCCO2)N1CCN(c2ccnc3cc(Cl)ccc23)CC1	-1.7	nt
OCCNCc1[nH]c2ccccc2c1Cl	-1.7	0.21
COc1ccccc1COCC(O)CN1CCC(=O)CC1 (stereo not given)	1.7	nt
CCCCCCCCCCCCC/C=C/[C@@H](O)[C@H](CO)NCCCCCCCC	-1.6	1.3

4 consecutive compounds already listed, quoted:
SMILES	BasE inh	LANA-nucl inh
CCOc1ccc(NC(=O)CC2C(=O)N(C)C(=S)N2CCc2ccccc2)cc1 (stereo not given)	3.2	nt
COc1cc(C(c2nnnn2Cc2ccco2)N2CCN(C3CCCC3)CC2)cc(OC)c1OC (stereo not given)	-0.6	0.44
O=C(O)c1ccccc1C(=O)Nc1nccs1	3.2	nt
O=S(=O)(c1ccc2c(c1)OCCO2)N1CCN(c2ccnc3cc(Cl)ccc23)CC1	-1.7	nt

Next section.
SMILES	BasE inh	LANA-nucl inh
O=C(Nc1ccc2c(c1)OCCO2)c1ccccc1CSc1nc2ccccc2o1	2.3	nt
Cn1cnc2c(cnn2-c2ccccc2)c1=O	nt	0.97
CC(NC(=O)c1ccco1)C(=O)OCc1cccc(C(F)(F)F)c1 (stereo not given)	2.8	nt
C=CCOC(=O)Nc1ccc(C(O)(C(=O)OCC)C(F)(F)F)cc1C (stereo not given)	-3.0	2.1
O=C(NC(=O)C(F)(F)F)NC1CCCC1	-0.6	-1
O=C(NC(=Nc1ccccc1)N1CCOCC1)Nc1ccccc1	-1.6	nt
CCOC(=O)c1cc2ccc(O)cc2oc1=O	3.0	0.16
COc1cccc(CNC(=O)c2cnc(SC)nc2C)c1	-6.4	0.81
c1ccc2c(c1)CNc1ccccc1C2	-0.6	-1.1
CCOC(=O)/C=c1\s/c(=C\c2ccsc2)c(=O)n1CC(=O)c1cc(C)n(Cc2ccco2)c1C	-2.6	nt

Of the compounds above, these have a tert-butyl group:
SMILES	BasE inh	LANA-nucl inh
COC(=O)Cc1csc(NC(C)(C)C)n1	0.9	nt
CN(C)c1ccc(/C=C2\N=C(C(C)(C)C)OC2=O)cc1	6.7	-0.26
